From PubChem
Menin MLL FP FL = displaces fluorescein MLL peptide from human menin; FP activity change, % at 61.4 µM; 290,000 tested, under 10 active; AID 1766; Fluorescence polarization, fluorescein-MLL peptide displacement from menin; inconclusive = falling polarisation curve, or a change in total fluorescence; inactive = total fluorescence flat and polarisation flat or rising; no compound was filed as active; the % refers to the polarisation; negative = inhibition;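 also: % of control where 0% means no effect; inhibitors lower the polarisation; unlabelled MLL peptide was the positive control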
gsp agonist = agonists of gsp mutant (McCune-Albright syndrome); gsp mutant cells, cAMP HTRF, 30 min; control for the full effect not named in the record; Potency, µM (highest dose often 76.9 µM), without a hit: at the top dose activation (cAMP increase), most hits filed as activators; 0.13% of 340,000 active; active = well fitted activation curve with a large enough effect; inconclusive = small, poorly fitted or top-dose-only effect, or another doubt; inactive = no such curve, though single readings can be large or run the other way; cell line not stated here;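 also: phosphodiesterase inhibitor Ro 20-1724 added with compounds to block cAMP breakdown; potency is read from the fitted curve at half-maximal effect; nearly all actives have a fitted effect of over 60% in size; about a fifth of the inactives were tested at one dose only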
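Cells stably selected in G418 were plated at 2000/well, grown 16-24 hr, then given compounds in DMSO with the PDE inhibitor […] (300 uM solution added) for 30 min at 37C; cAMP was read by HTRF.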
TRPV1 potentiator = enhances activation of the human vanilloid receptor TRPV1. TRPV1-expressing cells, Fluo-8 calcium influx, capsaicin EC20 potentiation; host cell line not named in the record; control for the full effect not named in the record. 0.02% of 320,000 active. potentiation, % at 8.33 µM. Q8NER1; active means potentiation above 80%; inconclusive means 30% to 80%; inactive means below 30%; also: 0% is about no effect
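Cells expressing TRPV1 were dye-loaded with Fluo-8 and read kinetically: 10 s baseline, 3 min after compound (agonist portion), then 2 min after EC20 capsaicin (allosteric enhancer portion). Calcium-bound dye fluorescence at 480/520 nm.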
TRPML1 inh = inhibitors of human TRPML1 channel. activity change, negative = inhibition, % (test concentration not listed). AID 624415. 0.02% of 390,000 active. Q9GZU1. TRPML1-inducible cells, Ca2+ dye fluorescence, FDSS; stronger effect = lower value; inhibition of EC80 agonist-evoked calcium signal; in the data active means activity change below about -50%; inconclusive means about -30% to -50%; inactive means above about -30%;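 also: stimulus is agonist 54-4 at its EC80 concentration; % is scaled to controls: 0 for no effect and ±100 for the full control effect; compound concentration not given in the record; the text of the record puts the active cut at -80%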
Target sequence (Q9GZU1 whole entry, looked up): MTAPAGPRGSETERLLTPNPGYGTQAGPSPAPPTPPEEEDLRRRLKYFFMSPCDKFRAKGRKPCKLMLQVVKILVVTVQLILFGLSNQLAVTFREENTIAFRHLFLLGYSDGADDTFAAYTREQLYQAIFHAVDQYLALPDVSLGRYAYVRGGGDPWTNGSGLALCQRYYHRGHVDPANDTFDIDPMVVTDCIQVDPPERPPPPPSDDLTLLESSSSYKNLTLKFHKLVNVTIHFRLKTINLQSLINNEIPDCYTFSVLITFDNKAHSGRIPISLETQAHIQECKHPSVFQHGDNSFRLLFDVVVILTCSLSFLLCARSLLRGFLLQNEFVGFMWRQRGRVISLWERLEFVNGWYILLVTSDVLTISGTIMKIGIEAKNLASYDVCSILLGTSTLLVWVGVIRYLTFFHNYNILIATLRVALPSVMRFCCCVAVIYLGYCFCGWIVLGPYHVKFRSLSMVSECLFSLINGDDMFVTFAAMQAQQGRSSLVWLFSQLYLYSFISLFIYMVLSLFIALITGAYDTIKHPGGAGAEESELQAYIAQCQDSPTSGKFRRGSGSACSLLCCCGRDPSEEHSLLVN
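Tet-induced TRPML1-DL cells loaded with Ca8 no-wash calcium dye were read kinetically on FDSS. Compound addition was followed by EC80 agonist 54-4 (4 uM final); inhibition was read over 110 s.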
ClpP mod = qHTS Assay for Activators of ClpP. purified B. subtilis ClpP, FRET peptide cleavage, 20 min. Potency, µM (series often up to 57.5 µM), for inactives: at the highest dose activity change, negative = active. 1.9% of 340,000 active; active = well fitted falling curve with a large enough effect; inconclusive = small, poorly fitted or top-dose-only effect; inactive = no such curve, though single readings can be large or run the other way; also: potency is read from the fitted curve at half-maximal effect; the source files actives as falling curves though it sought activators and does not explain the sign; nearly all actives have a fitted effect of over 65% in size; many hits overshoot -100%
Target sequence (P80244 whole entry, looked up): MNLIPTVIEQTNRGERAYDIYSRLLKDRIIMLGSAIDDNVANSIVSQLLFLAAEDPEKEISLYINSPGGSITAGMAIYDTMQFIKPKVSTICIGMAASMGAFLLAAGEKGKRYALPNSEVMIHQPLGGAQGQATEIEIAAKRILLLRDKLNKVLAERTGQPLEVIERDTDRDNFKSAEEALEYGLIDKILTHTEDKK
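Purified B. subtilis ClpP, 10 microg/mL final in Tris/HCl pH8 with KCl, BSA, glycerol and Tween-20, cleaved an Abz/nitrotyrosine-quenched decapeptide. Fluorescence (ex 320, em 430) was read at 0 and 20 min at room temperature. Delta was normalized to 5.8 microM ADEP and DMSO/no-enzyme controls.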
gsp antag = antagonizes gsp, the McCune-Albright syndrome mutation. gsp-mutant cells, cAMP HTRF, 30 min; control for the full effect not named in the record. Potency, µM (highest dose often 76.9 µM), inactives show at the top dose activity change, negative = inhibition, usual class: inhibitors. 0.4% of 340,000 active; active = falling curve of any shape with a large fitted effect; inconclusive = falling curve, mostly with a smaller effect; inactive = flat or rising curve; cell line not stated here;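 also: intracellular cAMP measured with PDE inhibitor Ro 20-1724 present during compound exposure; potency is read from the fitted curve at half-maximal effect; % is scaled to controls: 0 for no effect and ±100 for the full control effect; nearly all actives have a fitted effect of over 65% in size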
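G418-selected cells were plated in DMEM/10% FBS for 16-24 h at 37C, then treated with compounds plus the PDE inhibitor […] (300 uM solution added) for 30 min at 37C. Intracellular cAMP was measured by HTRF after 30 min lysis at room temperature.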
Sfp inh = blocks B. subtilis Sfp PPTase activity; Q9F4F7; Biochemical Sfp PPTase activity, qHTS; Potency, µM, inactives show max response, negative = inhibition, actives largely listed as inhibitors; 3.5% of 310,000 active; AID 1490; active = well fitted inhibition curve with a large enough effect; inconclusive = small, poorly fitted or top-dose-only effect, or another doubt; inactive = no such curve, though single readings can be large or run the other way;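 also: the enzyme is Sfp with the accession as filed and its product quenches rhodamine fluorescence; potency is read from the fitted curve at half-maximal effect; 0% = enzyme reaction without inhibitor and -100% = no enzyme wells; top concentration of the series not given in the record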
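Sfp 15 nM + cpd, 15 min RT; start w/ rhodamine-CoA 5 uM, BHQ-2-YbbR 12.5 uM (final); 50 mM Hepes pH 7.6, 10 mM MgCl2, 0.01% NP-40, 0.01% BSA; read 525/598 nm at 0 and 30 min.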
Starred values were filed as active, the others as inactive; ? = inconclusive; . = no result given; & = joins results of further samples; [ ] = another dose, or the depositor's remark.

SMILES | Menin MLL FP FL | gsp agonist | TRPV1 potentiator | TRPML1 inh | ClpP mod | gsp antag | Sfp inh
Cc1ccc(NC(=O)Cn2nc(C)c3ccccc3c2=O)c(C)c1 | 1.4 | 4% | 12 | 7 | -2.3% | 11% | -9%
Cc1ccc(NS(=O)(=O)c2ccc3c(c2)CC(=O)N3)cc1Cl | . | . | -6 | -5 | 4.3% | . | .
COCCCNC(=O)c1cc(=O)n(Cc2ccc(Cl)cc2)c2ccccc12 | -8.8 | -2%[15.4 µM] | 20 | -2 | . | 11% | -13%
Cc1ccc(-c2nn(-c3ccc(F)cc3)cc2C(=O)NCCCN2CCCC2=O)cc1 | . | 3% | -28 | 4 | 3.2% | -7% | .
O=c1c2[nH]c3ccc(F)cc3c2ncn1C1CCCCC1 | -1.5 | 15% | . | 1 | ? | 5% | 16%
CC1(C)C/C(=C(/C#N)C(N)=O)CCO1 | -5.5 | -51%[inhibitor] | 0 | 24 | -0.5% | 8% | 9%
O=C(NCCSc1c[nH]c2ccccc12)c1c(F)cccc1F | -1.3 | -26% | -11 | 12 | 1.3% | 5% | -11%
Cc1[nH]n(C)c(=O)c1[N+](=O)[O-] | -3.1 | ? | -7 | . | -2.8% | 10% | 6%
CCN(CC)S(=O)(=O)c1ccc(N2CCOCC2)c(NC(=O)c2ccc(N3CCCC3=O)cc2)c1 | . | 10% | 1 | -6 | -5.7% | -1% | .
C/C(=N\NC(=O)c1cccnc1)c1ccc(-c2ccccc2)cc1 | 3.9 | 11%[15.4 µM] | 4 | 12 | . | 2% | 9%
CCN(CC(=O)Nc1c(F)cccc1F)C(=O)c1ccc(Sc2nncn2C)c([N+](=O)[O-])c1 | . | 3%[15.4 µM] | 0 | -11 | . | -6% | .
COc1ccccc1NS(=O)(=O)c1cccc(C(=O)N2CCN(Cc3ccc4c(c3)OCO4)CC2)c1 | . | -102% | 9 | 15 | 1.2% | -18% | .
COc1ccc(CNC(=O)C(=O)c2cn(CC(=O)N3CCOCC3)c3ccccc23)cc1 | . | 0% | -1 | -7 | -0.7% | -5% | 4%
Nc1nc(NC(=O)c2cccc(S(=O)(=O)N3CCCCCC3)c2)nc(-c2ccccc2)n1 | 4.9 | ? | 2 | -7 | 1.3% | 0% | 8%
COC(=O)C(NC(C)=O)(Nc1ccc(Br)cn1)C(F)(F)F (configuration not stated) | 6.3 | 5% | 21 | 8 | 1.2% | -5% | 12%
C/C(=N/NC(N)=S)c1ccc(Br)s1 | -1.9 | 28% | -11 | 12 | . | 12% | -1%
COc1ccc(C(=O)NC2c3ccccc3-c3ccccc32)cc1 | 2.6 | 30% | 5 | -18 | 1.2% | 4% | -5%
Cc1csc2ncnc(NNC(=O)c3ccc(Cl)cc3)c12 | 2.7 | 4%[15.4 µM] | -9 | 12 | . | -9% | ?
COc1ccccc1OCCC(=O)N1CCN(c2ccccc2OC)CC1 | 3.0 | 7%[15.4 µM] | 1 | -5 | . | -2% | 19%
COc1ccc(CCNC(=O)C(=O)N2CCCC2)cc1OC | 0.3 | 1%[15.4 µM] | 2 | 28 | -1.7% | 7% | -3%
CC(=O)Nc1ccc(NC(=O)C(C)Sc2n[nH]c(=O)n2Cc2ccccc2)cc1 (configuration not stated) | -4.1 | 10%[15.4 µM] | 3 | 3 | . | 3% | -4%
N#CC1(NC(=O)CSc2nnc(Cc3ccccc3)o2)CCCCC1 | . | 24% | -25 | -6 | -2.2% | 9% | .
Cc1cccc(N2CC(C(=O)Nc3nnc(SCCN4CCOCC4)s3)CC2=O)c1 (configuration not stated) | . | 4%[15.4 µM] | 1 | -8 | -1.4% | -11% | ?
CCN(CC(=O)NCc1ccc(Cl)cc1)C(=O)c1cccc(S(=O)(=O)Nc2ccc(OC)cc2)c1 | . | 2% | -1 | -7 | 0.0% | -12% | .
Cc1ccc(OCc2nc(-c3ccc(Cl)cc3)n[nH]2)cc1 | -4.5 | -2% | 15 | -6 | -0.7% | -5% | 5%
O=C1CC(c2cccc([N+](=O)[O-])c2)c2c(ccc3ccccc23)N1 (configuration not stated) | 3.9 | 8% | 2 | 4 | 1.8% | 40µM* | 16%
Cc1cc(C)n2nc(-c3ccc(F)cc3)nc2n1 | -1.4 | ? | 3 | 20 | ? | -10% | 5%
Cc1nc2ccc(NC(=O)CS(=O)(=O)c3ccccc3)cc2s1 | . | -4% | 21 | -14 | -2.3% | -4% | .
CCN(CC)C(=O)N1CCN(C)CC1 | -0.5 | . | 17 | -6 | -3.1% | -5% | -9%&4%&15%
Cc1cc(NC(=O)COC(=O)C2CC(=O)N(c3ccc(Cl)cc3)C2)no1 (configuration not stated) | -7.9 | 20% | 1 | 12 | . | -1% | 9%
COc1ccc(-c2csc(NC(=O)C3=NN(c4ccccc4)C(=O)CC3)n2)cc1 | 2.9 | -22% | 0 | 28 | . | ? | 6%
Cc1ccc(C)c(N(C(=O)c2csnn2)C(C(=O)NC2CCCCC2)c2ccccn2)c1 (configuration not stated) | -0.3 | -3%[15.4 µM] | 10 | -26 | -7.9% | 8% | 2%
CCOC(=O)c1csc(N)n1 | -1.6 | -28% | 8 | 3 | . | 9% | 6%
CCOC(=O)/C(C#N)=C/Nc1ccccc1OC | 0.0 | -47% | 5 | 9 | -28% | 12% | 11%
O=C(Nc1ccc(Nc2ccncc2)cc1)c1ccc(Nc2ccnc3ccc([N+](=O)[O-])cc23)cc1[N+](=O)[O-] | -1.5 | -8% | 5 | -2 | 2.6% | -1% | ?
CCOC(=O)C1CCN(C(=O)c2cccc(S(=O)(=O)N(C)C3CCCCC3)c2)CC1 | . | -5% | -22 | 48 | 0.6% | -19% | .
CCCOc1c(OC)cccc1C1CC(=O)Nc2cc3c(cc21)OCO3 (configuration not stated) | -1.0 | 3% | -19 | -5 | ? | 7% | -11%
O=C1C2=C(SCCS2)C(=O)N1CCCO | -1.2 | ? | 0 | 14 | 1.1% | 4% | -5%
COC(=O)CS(=O)(=O)c1ccsc1C(=O)Nc1ccc(F)c(F)c1 | -0.8 | 1%[15.4 µM] | 9 | 7 | . | -4% | 18%
COc1ccc(N=C2SC(CC(=O)Nc3ccccc3F)C(=O)N2Cc2ccco2)cc1 (configuration not stated) | 6.7 | -2% | 6 | 5 | -0.6% | -4% | 2%
COc1ccc(-c2nc3c(c4nnc(SC(C)C(=O)Nc5ccc(C)cc5)n24)COC(C)(C)C3)cc1 (configuration not stated) | 8.3 | 6%[15.4 µM] | 2 | 1 | 0.5% | -12% | 21%
CCc1cccc(N(CC(=O)NC2CCCCC2)C(=O)c2csnn2)c1 | 3.6 | ? | 23 | -8 | . | 10% | 17%
C[C@H]1C(=O)N(S(=O)(=O)c2ccc([N+](=O)[O-])cc2)[C@H]1c1ccc(F)cc1 | -4.6 | . | . | -4 | . | . | 30%
O=C(Cn1c(CO)nc2ccccc21)NCCc1ccccc1 | -1.2 | 10% | 8 | -4 | . | 9% | 6%
CCN1CNC(=S)N(C(C)c2ccccc2)C1 (configuration not stated) | -2.5 | 0%[15.4 µM] | 18 | 7 | -3.4% | 5% | 18%
Cc1c(NC(=O)C(C)OC(=O)c2cccc(S(=O)(=O)N(C)C)c2)c(=O)n(-c2ccccc2)n1C (configuration not stated) | 1.6 | -1% | 2 | 2 | . | 7% | -7%
COc1ccc(NC(=O)Cn2nnc(C(=O)Nc3ccccc3C)c2N)cc1 | -1.6 | 9%[15.4 µM] | -5 | 24 | . | -19% | 23%
Cc1ccc(C(=O)N2CCN(c3cccc(Cl)c3)CC2)cc1C | 0.8 | 2% | -13 | -5 | 0.4% | ? | ?
O=c1[nH]c(SCc2ccccc2)nc2c1cnn2-c1ccc(F)cc1 | 10 | ? | -1 | 3 | -2.9% | 9% | -16%
O=C(O)C1Nc2ccc(C(F)(F)F)cc2C2OCCC12 (configuration not stated) | . | . | . | -1 | 2.1% | 4% | .
COc1ccc(NC(=O)CNS(=O)(=O)c2cccs2)cc1 | -1.5 | 12% | 3 | 18 | -0.5% | 11% | 3%
COc1ccc([C@@H]2[C@@H](C)N(c3ccccc3)c3ccccc3C(=O)N2Cc2ccccc2)cc1 | . | -43%[inhibitor] | . | -2 | 3.7% | . | .
Cc1[nH]n(-c2ccccc2)c(=O)c1N=Nc1nccs1 | 2.8 | -10% | 2 | -5 | -1.9% | -8% | 10%
COc1cccc(OC)c1OCCCCCCN1CCN(C)CC1 | -5.6 | 14% | 10 | 42 | 1.0% | 5% | 9%
Cc1cc(OCC(=O)N2CCC(C(=O)O)CC2)c2c(C)c(C)c(=O)oc2c1 | 2.6 | . | 0 | . | 5.0% | 15% | -3%
COc1ccc(NC(=O)CN(C)CC(=O)NCC2CCCCC2)cc1 | . | -35%[15.4 µM] | 23 | 1 | . | 3% | .
CCCc1cc(C(=O)Nc2cccc(-c3nn[nH]n3)c2)sc1C | . | -30%[inhibitor] | . | 5 | -2.1% | . | .
O=c1c(O[C@@H]2O[C@H](CO)[C@@H](O)[C@H](O)[C@H]2O)c(-c2ccc(O)c(O)c2)oc2cc(O)cc(O)c12 | 16 | . | 8 | . | . | . | -10%

This is a random part of the collection; overall some 4.9% were active at least once.
